# Source: PubChem BioAssay
# EBI2 block – antagonists of human EBI2 receptor. P32249. EBI2 beta-arrestin recruitment, luminescence, 7a,25-OHC stimulated. inhibition, % at 5 µM. actives 0.81% (n = 360,000); in the data active means inhibition above about 38%;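 further: enzyme fragment complementation signal reports receptor beta-arrestin coupling in cells; 0% = agonist plus DMSO wells and 100% = wells without agonist; some results beyond the cut were filed as inactive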
# UBC13 inh – inhibitors of human UBC13 polyubiquitin chain formation | P61088 | TR-FRET | inhibition, % at 20 µM | actives 0.47% (n = 330,000); in the data active means inhibition above about 45%, passing the limit was not always enough
# Target sequence (P61088 whole entry, looked up): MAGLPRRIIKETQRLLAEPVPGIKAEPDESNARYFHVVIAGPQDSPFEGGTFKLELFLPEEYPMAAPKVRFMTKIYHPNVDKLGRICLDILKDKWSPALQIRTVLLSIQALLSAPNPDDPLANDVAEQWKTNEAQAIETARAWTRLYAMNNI
# Gli-Sufu block – antagonists of Gli-Sufu signaling; Sufu-KO-LIGHT fibroblasts, Gli luciferase reporter luminescence; inhibition, % at 5 µM; actives 0.74% (n = 340,000); AID 588413;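 active means inhibition above about 55%, limit read from the data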;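 further: 0% = DMSO-treated cells and 100% = wells with medium but no cells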
# APJ antag – APJ receptor antagonism | inhibition, % at 20 µM | actives 0.32% (n = 330,000) | P35414 | CHO-K1 APJ beta-arrestin complementation, luminescence | AID 2521;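 active means inhibition above about 40% at 20 µM, limit read from the data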;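 further: cells challenged with 10 nM apelin-13 agonist together with compound; plate controls were apelin-13 plus DMSO wells for no effect and DMSO wells lacking apelin-13 for full effect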
# Target sequence (P35414 whole entry, looked up): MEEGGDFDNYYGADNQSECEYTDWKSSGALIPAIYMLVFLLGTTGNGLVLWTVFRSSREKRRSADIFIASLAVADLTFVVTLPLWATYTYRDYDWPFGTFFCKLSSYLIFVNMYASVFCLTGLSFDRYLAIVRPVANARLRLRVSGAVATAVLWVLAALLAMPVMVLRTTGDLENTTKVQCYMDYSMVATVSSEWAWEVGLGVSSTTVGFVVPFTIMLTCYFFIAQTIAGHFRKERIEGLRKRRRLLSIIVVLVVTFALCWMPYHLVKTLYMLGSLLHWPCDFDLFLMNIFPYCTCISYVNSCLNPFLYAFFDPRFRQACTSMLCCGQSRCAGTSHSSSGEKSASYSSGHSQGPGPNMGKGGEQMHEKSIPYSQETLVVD
# APJ ag – activates the human apelin receptor APJ; AID 2520; actives 0.11% (n = 330,000); P35414; activation, % at 20 µM; CHO-K1 APJ PathHunter beta-arrestin, luminescence; 0% DMSO wells, 100% apelin;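 active means activation more than six SD over the plate average, tested at 20 µM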;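 further: 0% = DMSO alone and 100% = apelin-13 at 10 nM; some results filed as inactive read as strong as hits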
#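 Material: CHO-K1 APJ beta-arrestin complementation cell line; Input: cell density 1000 per well; Incubation: compound stimulation 90 min at 25 °C, detection 60 min; Signal: luminescence from split beta-galactosidase complementation, Galacton Star/Emerald II substrate; Controls: DMSO-only wells as negative, 10 nM Apelin-13 as positive control.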
# ATG4B inh – blocks human ATG4B protease cleavage of LC3 substrate | ATG4B cleavage of LC3-PLA2, NBD-HPC fluorescence, 1 h | Q9Y4P1 | inhibition, % at 8.33 µM | actives 0.51% (n = 340,000); in the data active means inhibition above about 40%
# Target sequence (Q9Y4P1 whole entry, looked up): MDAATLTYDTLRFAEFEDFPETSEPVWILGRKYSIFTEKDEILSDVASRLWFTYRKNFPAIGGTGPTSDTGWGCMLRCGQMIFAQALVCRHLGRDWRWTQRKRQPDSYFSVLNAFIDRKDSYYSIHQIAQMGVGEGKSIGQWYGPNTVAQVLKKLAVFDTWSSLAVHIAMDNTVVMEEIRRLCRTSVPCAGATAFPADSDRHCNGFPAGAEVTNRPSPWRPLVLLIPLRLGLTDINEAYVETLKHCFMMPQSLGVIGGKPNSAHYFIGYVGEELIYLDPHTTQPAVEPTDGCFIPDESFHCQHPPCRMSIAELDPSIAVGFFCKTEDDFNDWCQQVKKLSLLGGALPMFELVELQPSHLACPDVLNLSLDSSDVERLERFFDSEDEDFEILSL
# An asterisk follows results filed as active; . = not tested or not shown. This is a subset. The share of hits here may be higher or lower than overall.
# Under each structure – APJ ag	ATG4B inh	UBC13 inh	EBI2 block	APJ antag	Gli-Sufu block
(1) CCOc1ccc(N2C(=O)CC(Sc3nnnn3-c3ccccc3)C2=O)cc1 (stereo not drawn)
→ .	-7	.	-1	.	-5
(2) CCOc1cc(NC(=O)c2ccccn2)c(OCC)cc1NC(=O)c1ccc(OC)cc1
→ 0	-10	5	35	-19	14
(3) CC(C)CC1Nc2ncnc(N3CCCCC3)c2N(Cc2ccc(Br)cc2)C1=O (stereo not drawn)
→ -6	-17	4	4	21	18
(4) CCn1c(-c2nonc2NC(=O)c2ccccc2)nc2ccccc21
→ -4	-4	-6	18	2	70*
(5) O=C(Oc1ccc(Cl)c2cccnc12)c1cccc([N+](=O)[O-])c1
→ 2	4	-17	54*	-19	-6
(6) O=C(Oc1cccc2cccnc12)c1ccc2c(c1)OCCO2
→ 0	-7	2	-2	-2	0
(7) O=C(CN1C(=O)/C(=C2/SC(=S)N(CCS(=O)(=O)O)C2=O)c2ccccc21)Nc1cccc(C(F)(F)F)c1
→ -7	-9	-30	-24	-10	-1
(8) COCCNC(=O)c1c(N)n(-c2cccc(C)c2)c2nc3ccccc3nc12
→ -1	-4	-9	3	1	7
(9) Cc1sc2ncn(CC(=O)NCCCC(=O)N3CCC(C(N)=O)CC3)c(=O)c2c1C
→ -1	0	-3	13	8	3
(10) CC(C)NC(=O)NC(=O)CSc1nnc(C(F)(F)F)n1C
→ -1	3	-6	-1	-40	-2
(11) COc1ccc(Nc2cc(C)nc3nc(C)nn23)cc1Cl
→ -2	8	3	-8	-29	3
(12) CC(C)[C@H](NC(=O)c1c(F)cccc1F)C(=O)Nc1cccc(Br)c1
→ -3	-9	-1	3	22	2
(13) O=C(NCc1ccccc1)c1nc(S(=O)(=O)Cc2ccccc2)ncc1Cl
→ -5	-10	15	41	33	11
(14) Cc1[nH]n(-c2ccccc2)c(=O)c1/C=N/N1C(=O)c2ccc3c4c(ccc(c24)C1=O)CC3
→ 3	0	-17	2	-12	-1
(15) C=CCN1CCOc2ccc(C)cc2S1(=O)=O
→ .	0	.	3	.	-10

# The listing continues.
# Under each structure – APJ ag	ATG4B inh	UBC13 inh	EBI2 block	APJ antag	Gli-Sufu block
(16) COc1cccc(/C=C2/Sc3ccc(C(=O)NCCN4CCCC4)cc3NC2=O)c1
→ -2	9	50*	-12	-3	3
(17) COC(=O)C(C)NC(=O)C(C)NC(=O)OCc1ccccc1 (stereo not drawn)
→ 0	0	-7	-4	2	-8
(18) Cn1nnc(NC(=S)NC(=O)c2cc3ccccc3o2)n1
→ -2	5	-6	3	35	2
(19) O=C(N/N=C/c1ccoc1)c1ccccc1
→ 2	-10	-8	-8	12	3
(20) CCN(CC)C(=O)CNc1ccc(C(F)(F)F)cc1[N+](=O)[O-]
→ -2	-3	-5	-15	14	2
(21) CC(=O)Nc1nonc1-c1nc2ccccc2n1Cc1ccccc1
→ -4	1	8	7	9	11
(22) CC1CC1C(=O)OCC(=O)NC(=O)NCc1ccco1 (stereo not drawn)
→ -3	-7	9	-1	-1	3
(23) COc1ccc(OCC(=O)NNC(=S)NC(=O)c2ccc(Br)o2)cc1
→ -4	-6	7	-3	22	-6
(24) CCOc1cc(/C=C\[N+](=O)[O-])ccc1OCC(=O)Nc1ccccc1C
→ 14	3	-1	-15	29	-2
(25) O=C(CNc1ccc(C(F)(F)F)cc1[N+](=O)[O-])OCC(=O)c1ccccc1
→ 0	21	0	4	22	4
(26) CC(O)c1nc2ccccc2n1CCCc1ccccc1 (stereo not drawn)
→ 3	-8	-2	-3	7	13
(27) CC1=C(C(=O)Nc2ccccc2)C(c2cccnc2)n2nc(-c3cccnc3)nc2N1 (stereo not drawn)
→ -2	-11	-5	-1	4	4
(28) Cc1ccc(-c2nn3cnnc3c3ccccc23)cc1C
→ -2	1	8	-7	10	6
(29) COC1=C(OC)C(=O)C(Sc2ccc3ccccc3c2)=CC1=O
→ .	1	.	-1	.	-9
(30) CSCCC(NS(=O)(=O)c1ccc(Br)cc1)C(=O)OCC(=O)NC1CC1 (stereo not drawn)
→ -4	3	7	3	-1	51

# Later entries:
# Under each structure – APJ ag	ATG4B inh	UBC13 inh	EBI2 block	APJ antag	Gli-Sufu block
(31) O=S(=O)(CCc1nnc(-c2ccc(Br)cc2)o1)c1ccc(Cl)cc1
→ 0	0	4	2	5	1
(32) Cc1sc(NC(=S)NC(=O)c2ccc(C(C)(C)C)cc2)c(C#N)c1C
→ -6	3	2	22	21	23
(33) Cc1ccc(N)cc1S(=O)(=O)N(C)C
→ 4	1	-3	-2	-15	-3
(34) N#Cc1ccc(/C=N/NC(=O)c2cc(-c3cccs3)nc3ccccc23)cc1
→ -1	-15	-4	-2	-2	0
(35) O=C1CC(c2cccc(Br)c2)C2=C(CCCC2=O)N1 (stereo not drawn)
→ 1	-3	-11	-1	-12	-9
(36) O=C(O)c1ccccc1C(=O)Nc1nc(-c2ccccc2)cs1
→ -5	12	-1	1	15	-5
(37) Cc1c(NC(=O)N(C)c2ccccc2)c(=O)n(-c2ccccc2)n1C
→ 0	1	0	-2	-4	-7
(38) COC(=O)C1=NN(c2cccc3ccccc23)C2C(=O)N(c3ccccc3OC)C(=O)C12 (stereo not drawn)
→ -3	-4	-12	-10	0	2
(39) COc1ccc(-c2cc(C(=O)OCC(=O)NC(C)C)c3ccccc3n2)cc1
→ 0	3	16	7	-4	13
(40) CC(C(=O)N1CCOCC1)N1C(=O)c2ccccc2C1=O (stereo not drawn)
→ -1	-2	-2	3	7	16
(41) O=C(O)c1ccc(N2C(=O)/C(=C/c3ccc(-c4ccc([N+](=O)[O-])cc4)o3)C=C2c2ccccc2)cc1
→ -2	8	-50	-9	19	4
(42) O=C(CSc1cccc2cccnc12)Nc1ccc(S(=O)(=O)N2CCOCC2)cc1
→ -6	-15	18	7	22	5
(43) Cc1cc(C)c(S(=O)(=O)Nc2cccnc2)c(C)c1
→ -2	-4	-12	-3	-16	3
(44) CC1CCCN(C(=O)COC(=O)Cc2c(F)cccc2Cl)C1 (stereo not drawn)
→ -1	8	1	5	8	-48
(45) CN(C)C(=O)c1ccc2c3c(cccc13)CC2
→ 1	-5	-12	2	0	-5

# The list continues:
# Under each structure – APJ ag	ATG4B inh	UBC13 inh	EBI2 block	APJ antag	Gli-Sufu block
(46) O=C(NC(=S)N(CCc1ccccc1)CCc1ccccc1)c1ccco1
→ -1	10	17	2	23	2
(47) CSc1cc(C)n(-c2ccccc2)c(=S)c1C(C)=O
→ -1	-1	-4	-6	11	0
(48) O=C(NC(=S)Nc1ccccc1N1CCN(C(=O)c2ccccc2)CC1)c1ccccc1F
→ -1	11	-6	-9	-11	12
(49) O=C(Nc1nc(-c2ccccn2)cs1)c1ccc(Br)s1
→ -4	12	28	23	19	82*
(50) Cc1ccc(CN2C(=O)C(CC(C)C)Nc3ncnc(N4CCCCC4)c32)cc1 (stereo not drawn)
→ .	.	.	-2	.	.
(51) CC(Oc1ccc(-c2ccccc2)c(F)c1)c1ccn(S(=O)(=O)c2ccc(Cl)cc2)n1 (stereo not drawn)
→ 0	-8	4	15	6	1
(52) CC(=O)Nc1c(O)nc(SCC(=O)Nc2sc3c(c2C#N)CCCCCC3)[nH]c1=O
→ -3	-4	11	9	21	3
(53) CC(C)NC(=O)CC(=O)NN=C1CCCCC1
→ -2	-2	4	7	4	29
(54) CC(=O)Nc1nonc1-c1nc2ccccc2n1Cc1nnc(C)o1
→ -2	-6	8	0	1	4
(55) Cc1noc(C)c1/C=N/Nc1ccc2ccccc2n1
→ -1	-6	-6	9	-6	-88
(56) COC(=O)c1cc(C)c(C)cc1NC1OC(CO)C(O)C1O (stereo not drawn)
→ .	5	.	-9	.	7
(57) COc1cccc(CC(=O)OCC(=O)NC(C)c2ccc(F)cc2)c1 (stereo not drawn)
→ -2	16	6	8	10	-6
(58) COc1cccc(OC)c1C(=O)Nc1c(C)n(C)n(-c2ccccc2)c1=O
→ -3	-5	8	10	4	-1
(59) CNC(=S)NN=C(C)CCCC(C)=NNC(=S)NC
→ .	-4	.	-1	.	43
(60) CSc1nc(-c2ccco2)nn1C(=O)c1ccccc1Cl
→ .	1	.	-32	.	-3

# The listing continues:
# Under each structure – APJ ag	ATG4B inh	UBC13 inh	EBI2 block	APJ antag	Gli-Sufu block
(61) CC1=C(C(N)=O)C(c2cccc(OCc3ccccc3)c2)n2nnnc2N1 (stereo not drawn)
→ -3	-8	-5	3	-36	-1
(62) N#CC(CCc1ccc([N+](=O)[O-])cc1)(CCc1ccc([N+](=O)[O-])cc1)C(N)=O
→ .	-10	.	10	.	-8
(63) CC(/C=C/c1ccc2c(c1)OCO2)=N/NC(=O)CNc1ccc(C)cc1
→ 0	-10	-6	5	8	-2
(64) N#CC(C(=O)NC1CC1)c1nc2ccccc2nc1N1CCCC1 (stereo not drawn)
→ -6	6	-25	2	-15	-7
(65) Cc1csc(NC(=O)c2cc(-c3ccco3)nc3ccccc23)n1
→ -2	20	-3	4	0	-13
(66) O=C(NC(=S)N1CCN(c2ccc(Cl)cc2[N+](=O)[O-])CC1)c1cccs1
→ .	10	.	-5	.	-3
(67) O=C(/C=C/NNC(=O)c1ccccc1O)c1ccccc1
→ -1	0	-7	4	-4	-10
(68) COc1ccc(C2/C(=C(/O)c3ccccc3)C(=O)C(=O)N2C)cc1OC (stereo not drawn)
→ 0	-3	-5	-6	18	4

# Laid out differently: results already given.
No.	SMILES	APJ ag	ATG4B inh	UBC13 inh	EBI2 block	APJ antag	Gli-Sufu block
47	CSc1cc(C)n(-c2ccccc2)c(=S)c1C(C)=O	-1	-1	-4	-6	11	0
48	O=C(NC(=S)Nc1ccccc1N1CCN(C(=O)c2ccccc2)CC1)c1ccccc1F	-1	11	-6	-9	-11	12
49	O=C(Nc1nc(-c2ccccn2)cs1)c1ccc(Br)s1	-4	12	28	23	19	82*
50	Cc1ccc(CN2C(=O)C(CC(C)C)Nc3ncnc(N4CCCCC4)c32)cc1 (stereo not drawn)	.	.	.	-2	.	.
51	CC(Oc1ccc(-c2ccccc2)c(F)c1)c1ccn(S(=O)(=O)c2ccc(Cl)cc2)n1 (stereo not drawn)	0	-8	4	15	6	1
52	CC(=O)Nc1c(O)nc(SCC(=O)Nc2sc3c(c2C#N)CCCCCC3)[nH]c1=O	-3	-4	11	9	21	3
53	CC(C)NC(=O)CC(=O)NN=C1CCCCC1	-2	-2	4	7	4	29
54	CC(=O)Nc1nonc1-c1nc2ccccc2n1Cc1nnc(C)o1	-2	-6	8	0	1	4
55	Cc1noc(C)c1/C=N/Nc1ccc2ccccc2n1	-1	-6	-6	9	-6	-88
56	COC(=O)c1cc(C)c(C)cc1NC1OC(CO)C(O)C1O (stereo not drawn)	.	5	.	-9	.	7
57	COc1cccc(CC(=O)OCC(=O)NC(C)c2ccc(F)cc2)c1 (stereo not drawn)	-2	16	6	8	10	-6
58	COc1cccc(OC)c1C(=O)Nc1c(C)n(C)n(-c2ccccc2)c1=O	-3	-5	8	10	4	-1
59	CNC(=S)NN=C(C)CCCC(C)=NNC(=S)NC	.	-4	.	-1	.	43
60	CSc1nc(-c2ccco2)nn1C(=O)c1ccccc1Cl	.	1	.	-32	.	-3
61	CC1=C(C(N)=O)C(c2cccc(OCc3ccccc3)c2)n2nnnc2N1 (stereo not drawn)	-3	-8	-5	3	-36	-1
62	N#CC(CCc1ccc([N+](=O)[O-])cc1)(CCc1ccc([N+](=O)[O-])cc1)C(N)=O	.	-10	.	10	.	-8
63	CC(/C=C/c1ccc2c(c1)OCO2)=N/NC(=O)CNc1ccc(C)cc1	0	-10	-6	5	8	-2
64	N#CC(C(=O)NC1CC1)c1nc2ccccc2nc1N1CCCC1 (stereo not drawn)	-6	6	-25	2	-15	-7
65	Cc1csc(NC(=O)c2cc(-c3ccco3)nc3ccccc23)n1	-2	20	-3	4	0	-13
66	O=C(NC(=S)N1CCN(c2ccc(Cl)cc2[N+](=O)[O-])CC1)c1cccs1	.	10	.	-5	.	-3
67	O=C(/C=C/NNC(=O)c1ccccc1O)c1ccccc1	-1	0	-7	4	-4	-10
68	COc1ccc(C2/C(=C(/O)c3ccccc3)C(=O)C(=O)N2C)cc1OC (stereo not drawn)	0	-3	-5	-6	18	4
